# Source: PubChem
# Rce1 inhib: yeast Ras-converting enzyme inhibition; calls only; Q03530; yeast membranes, quenched prenylated peptide cleavage fluorescence; actives 0.27% (n = 290,000); AID 2563;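 active means fall in fluorescence gain of 50% or more versus controls, with final raw signal at or below 3038400; inconclusive means same 50% fall but final raw signal above 3038400; inactive means fall in fluorescence gain under 50%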;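 further: plate controls were neutral control wells for no effect and wells lacking membranes for full effect; tested at 10 µM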
# PABP polyA inh: PABP-poly(A) binding inhibition. PABP-poly(A) RNA binding, fluorescence polarization. inhibition, % at 35 µM. actives 1% (n = 290,000);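 active means 50% or more with normal probe brightness, or confirmed in later tests; inconclusive means above 50% with abnormal brightness, or retests that disagree; inactive means below 50% or failed in later tests; about a fifth of its hits are not listed in these tables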;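 further: calls also rest on retests at 20 µM and on dose response follow-up; controls were probe without protein and protein plus probe with vehicle; some compounds called inactive have numbers as strong as hits; many hits fall short of the cut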
# Target sequence (P11940 whole entry, looked up): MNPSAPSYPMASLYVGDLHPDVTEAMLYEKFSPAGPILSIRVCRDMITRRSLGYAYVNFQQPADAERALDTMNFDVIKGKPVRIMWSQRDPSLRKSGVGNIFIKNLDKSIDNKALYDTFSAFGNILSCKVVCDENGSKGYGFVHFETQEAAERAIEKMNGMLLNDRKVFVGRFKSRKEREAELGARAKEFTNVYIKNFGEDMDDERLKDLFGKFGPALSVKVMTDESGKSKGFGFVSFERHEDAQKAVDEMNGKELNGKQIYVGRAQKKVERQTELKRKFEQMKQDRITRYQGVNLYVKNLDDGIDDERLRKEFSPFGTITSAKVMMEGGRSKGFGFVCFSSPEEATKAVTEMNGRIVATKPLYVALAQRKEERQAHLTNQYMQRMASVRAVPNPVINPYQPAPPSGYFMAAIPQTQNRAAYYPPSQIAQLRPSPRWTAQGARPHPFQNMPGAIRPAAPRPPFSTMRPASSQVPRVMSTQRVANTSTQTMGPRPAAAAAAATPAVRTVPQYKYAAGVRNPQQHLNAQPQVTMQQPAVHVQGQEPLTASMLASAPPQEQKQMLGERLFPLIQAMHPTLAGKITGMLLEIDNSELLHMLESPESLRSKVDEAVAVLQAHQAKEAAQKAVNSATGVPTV
# MT1-MMP act inh: blocks activation of human MT1-MMP; GFP/RFP ratio change, % at 20 µM; P50281; HT1080 RFP-PRO-GFP cells, GFP/RFP ratio fluorescence, overnight; percent of plate control window, DMSO zero; actives 0.061% (n = 360,000);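 active means GFP/RFP ratio change of at least 30% with cell ATP level not reduced by more than half and red fluorescence within 50% of control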; further: strong numbers were not always called active
#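 Assay system: HT1080 RFP-PRO-GFP cells | Dosing: 20 µM single dose, 1% DMSO | Incubation: Cells overnight before dosing, compound overnight, 37 °C, 5% CO2 | Evaluation: GFP/RFP fluorescence ratio | Control set: DMSO-only wells and HT1080 RFP-L50D-GFP cell wells as references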
# eIF4H inh: inhibitors of RNA binding by human eIF4H; inhibition, % at 35 µM; actives 0.94% (n = 290,000); AID 2012; eIF4H fluorescence polarization binding assay; Q15056;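 active means 50% or more with normal probe brightness, or confirmed in later tests; inconclusive means above 50% with abnormal brightness, or retests that disagree; inactive means below 50% or failed in later tests; about a fifth of its hits are not listed in these tables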;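 further: calls also rest on retests at 20 µM and on dose response follow-up; 0% = protein and probe with vehicle and 100% = probe without protein; strong numbers were not always called active; many hits fall short of the cut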
# Env fusion inh: inhibitors of HIV Env-mediated cell fusion. inhibition, % at 12.3 µM. HeLa-JRFL Env/CEM21 cell fusion, luciferase. actives 1.1% (n = 360,000);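 active means mean replicate inhibition score of at least 50 and every replicate individually at or above 50; inconclusive means only one of the two criteria met; inactive means mean below 50 and not all replicates reaching 50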;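 further: 0% = plate neutral controls and 100% = maraviroc near 300 nM; one replicate is shown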
# Yeast UUG start: alters start codon recognition fidelity in yeast; S. cerevisiae UUG-firefly luciferase reporter, luminescence/redox ratio; activity score, % at 18.7 µM; actives 0.13% (n = 350,000);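 active means replicate mean at a twofold rise or more, about +100% in these data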;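 further: firefly luciferase made from a UUG start codon reports start codon fidelity; reporter light over untreated wells divided by growth signal over untreated wells; some hits fall short of that in this replicate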
# CSC inhib: blocks cancer stem cells | cancer stem cell-like cells viability, luminescence | actives 1.1% (n = 300,000) | inhibition, % at 7.5 µM;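 active means mean at 75% or more and at least half the replicates too; inconclusive means mean and replicates disagree; tested in HMLE shEcad cells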;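 further: 0% = median of negative and 100% = median of positive control wells; the first replicate is given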
# eIF4H inh retest: recorded beside eIF4H inh, whose call it bears; inhibition, %; compound at 20 µM; confirmation average;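 mean of two retest wells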
# PABP polyA inh retest: further read-out of PABP polyA inh, marked with its call; inhibition, %; compound at 20 µM; confirmation repeats;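 mean of two retest wells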
# MT1-MMP act inh RFP: further read-out of MT1-MMP act inh, marked with its call; RFP signal change, %; measured here: RFP expression control read;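 0 = vehicle wells; hits needed this value within 50% of zero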
# * = called active by the depositor; i = inactive; ? = inconclusive; / = no result given; + = active, no number; & = joins results of further samples.
SMILES,Rce1 inhib,PABP polyA inh,MT1-MMP act inh,MT1-MMP act inh RFP,eIF4H inh,Env fusion inh,Yeast UUG start,CSC inhib,others
Fc1cccc2sc(Nc3nc4ccccc4s3)nc12,i,2.0,4.1,0.7,10.6,-59.4,-8.6,-4.2,
COC(=O)/C(=C\Nc1ccc(Cl)c2ccccc12)c1ncc(C(F)(F)F)cc1Cl,i,-16.7,-3.2,-1.5,2.6,/,/,-2.3,
CCOC(=O)C1=C(C)Nc2ccccc2N=C1NC(=O)c1cccc(S(=O)(=O)N(C)C)c1,i,7.0,-5.2,2.8,6.6,-20.0,-12.5,-3.0,
COc1ccc(-c2cc(-c3ccccc3O)[nH]n2)cc1,i,-4.5,4.3,-0.6,-7.1,/,/,-11.5,
CC(NC(=O)C1CCN(Cc2ccccc2)CC1)c1cccc2ccccc12 (stereo unspecified),/,/,1.5,3.7,/,15.9,-11.6,/,
O=C(O)c1ccccc1NC(=S)NC(=O)c1sc2ccccc2c1Cl,i,-1.2,-2.0,-1.6,0.2,0.8,-20.1,2.8,
Cc1ccc(C(=O)N/C(=C\C=C\c2ccccc2)C(=O)NCc2ccco2)cc1,i,-4.7,8.0,-10.3,-4.9,-4.1,/,5.4,
CCn1nc(CC(=O)Nc2nnc(CC(=O)N3CCOCC3)s2)c2ccccc2c1=O,i,0.9,1.6,3.0,-6.8,/,/,-6.3,
CC(C)(C)OC(=O)[C@H](Cc1ccccc1)NC(=O)c1nc[nH]c1C(=O)N[C@@H](CCCCN)C(=O)OC(C)(C)C,/,/,-0.1,-2.3,/,-15.4,-24.4,-4.6,
COc1cc(C(=O)N/C(=C\c2cn(C)c3ccccc23)C(=O)NCCCN2CCOCC2)cc(OC)c1OC,i,3.7,0.6,0.4,-1.0,3.7,-18.4,0.8,
Cc1nc2c(sc3nc4c(cc32)COC(C)(C)C4)c(=O)o1,/,18.4,3.4,-2.9,-2.2,-143.9,4.4,/,
CCC1CCCCN1C(=O)CCc1nnc(Cc2c[nH]c3ccccc23)o1 (stereo unspecified),i,-5.4,-2.1,-1.2,2.7,2.3,/,1.5,
O=C(c1cncc(Br)c1)N1CCc2ccccc2C1,i,2.7,-11.9,-11.2,7.8,/,-6.8,-11.5,
CCC(C)(C)NC(=O)C(c1ccc(C)o1)N(C(=O)c1csnn1)c1cccc(F)c1 (stereo unspecified),i,-10.2,-0.1,1.0,-3.7,-20.6,-9.9,-9.5,
O=C(NCc1nc(-c2ccc(Cl)cc2)no1)c1ccco1,/,3.0,1.7,1.3,-10.6,5.7,-12.6,-16.3,
O=C(COC(=O)CSc1ccc(Cl)cc1)NCCc1ccccc1,/,/,0.0,3.0,/,5.5,-0.1,/,
Cc1cc(C)n(/N=C\c2c(O)ccc3ccccc23)c(=O)c1C(N)=O,i,-8.0,-2.4,-7.4,-14.6,-47.8,-20.8,-1.3,
CCCOc1ccc(C(=O)Nc2ccc(C)cc2[N+](=O)[O-])cc1,/,-10.7,0.0,1.2,-9.6,/,-5.7,-3.2,
COc1ccc(N(CC(=O)NCc2ccc3c(c2)OCO3)S(=O)(=O)c2c(C)nn(C)c2C)cc1,i,4.7,2.7,0.9,2.7,-4.2,-13.8,-7.8,
CCCCCCSc1ccc(-c2nc3ccc(C)cn3c2NCc2ccccc2)cc1,i,/,6.4&4.6,-9.5&-21.6,/,?,-2.1,9.4,
CCC(C)NC(=O)CN(c1cc(C)cc(C)c1)S(=O)(=O)c1c(C)[nH]c(=O)[nH]c1=O (stereo unspecified),i,-8.0,7.2,3.0,-17.9,0.1,13.1,7.1,
Cc1csc(SCC(=O)c2ccc(S(=O)(=O)N3CCOCC3)cc2)n1,i,-2.3,-6.0,1.0,-8.9,-3.8,-13.8,-5.2,
Cc1ccc(C)c(N2CCN(C(=O)CC3Sc4ccccc4NC3=O)CC2)c1 (stereo unspecified),i,-6.7,/,/,-3.0,/,/,12.4,
COc1ccc(C(=O)OCC(=O)NC(=O)CCSc2ccccc2)cc1,i,0.1,1.1,5.3,1.3,-5.4,/,-4.2,
CC(c1ccccc1)N1C(=O)c2ccc(C(=O)NCc3cccnc3)cc2C1=O (stereo unspecified),i,-9.4,3.3,-0.8,-7.6,15.9,-15.4,13.9,

# Fetched one by one from the entries so far, 6 records:
SMILES,Rce1 inhib,PABP polyA inh,MT1-MMP act inh,MT1-MMP act inh RFP,eIF4H inh,Env fusion inh,Yeast UUG start,CSC inhib,others
COc1ccc(C(=O)OCC(=O)NC(=O)CCSc2ccccc2)cc1,i,0.1,1.1,5.3,1.3,-5.4,/,-4.2,
CCOC(=O)C1=C(C)Nc2ccccc2N=C1NC(=O)c1cccc(S(=O)(=O)N(C)C)c1,i,7.0,-5.2,2.8,6.6,-20.0,-12.5,-3.0,
O=C(COC(=O)CSc1ccc(Cl)cc1)NCCc1ccccc1,/,/,0.0,3.0,/,5.5,-0.1,/,
COc1ccc(-c2cc(-c3ccccc3O)[nH]n2)cc1,i,-4.5,4.3,-0.6,-7.1,/,/,-11.5,
O=C(O)c1ccccc1NC(=S)NC(=O)c1sc2ccccc2c1Cl,i,-1.2,-2.0,-1.6,0.2,0.8,-20.1,2.8,
Cc1ccc(C)c(N2CCN(C(=O)CC3Sc4ccccc4NC3=O)CC2)c1 (stereo unspecified),i,-6.7,/,/,-3.0,/,/,12.4,

# Next results:
SMILES,Rce1 inhib,PABP polyA inh,MT1-MMP act inh,MT1-MMP act inh RFP,eIF4H inh,Env fusion inh,Yeast UUG start,CSC inhib,others
CCN(CC)S(=O)(=O)c1ccc(/C=C/C(=O)Nc2cccc(F)c2)cc1,i,-3.3,-2.3,-25.3,-1.7,/,-11.2,39.2,
CCC(C)(C)NC(=O)Cc1ccccc1OC,i,5.5,2.4,1.0,7.7,-29.7,-8.8,-3.0,
CC1CN(c2nc3ccccc3nc2SCC(=O)Nc2cccc(C(F)(F)F)c2)CC(C)O1 (stereo unspecified),i,/,-5.1,-4.9,/,63.9*,-20.8,29.2,
COc1ccc(OC)c2[nH]c(=O)c(CCNS(=O)(=O)c3ccc(Cl)cc3)cc12,i,-8.3,7.2,0.6,-5.4,/,8.0,-11.1,
Clc1ccc2c(c1)C1=C(C(c3ccncc3)O2)C(c2ccc(Br)cc2)n2ncnc2N1 (stereo unspecified),i,-9.2,-59.9,-41.6,2.3,74.5*,-10.1,16.3,
CCOCN(C(=O)Cn1cnc2ccccc21)c1c(C)cccc1CC,i,4.4,-8.8,-2.9,0.7,-7.5,/,-14.1,
O=C(CSc1nnc(Cc2ccccc2)o1)NC1CCCCC1,i,-5.4,-0.1,-1.4,-12.4,/,-10.5,-14.5,
COC(=O)c1cnn2c3c(c(C)nc12)CCCC3,+,-0.8,1.6,4.9,-1.6,-60.0,-8.9,-8.1,
CCN(Cc1ccccc1)S(=O)(=O)c1cc(C(=O)NC(C)C2CC3CCC2C3)ccc1OC (stereo unspecified),i,-10.2,-9.1,-18.9,8.5,19.2,/,14.3,
Cc1ccc(OCC(=O)NC(=S)Nc2ccc(Br)cn2)cc1C,i,-4.6,0.9,1.5,1.2,-28.1,/,15.1,
COc1ccc(CNc2nc3ccccc3n2C)c(O)c1,i,12.2,7.1,3.7,-11.9,-131.8,/,6.4,
COc1ccccc1N1CCN(S(=O)(=O)CCNC(=O)/C=C/c2ccc3c(c2)OCO3)CC1,/,/,4.6,-4.0,/,-22.7,-18.8,/,
COc1cc(OC)cc(C(=O)NC(C(=O)Nc2ccc(N3CCOCC3)cc2)C(C)C)c1 (stereo unspecified),/,/,-6.9,-3.3,/,12.4,-13.4,/,
Cc1cc(F)ccc1N1CCC(N2CCN(CCC(C)C)C(CCO)C2)CC1 (stereo unspecified),i,9.2,-1.4,3.7,-4.0,12.6,/,65.6,
Cc1c(O)nc(SCC(=O)Nc2ccc3c4c(cccc24)CC3)n(-c2ccccc2)c1=O,i,7.4,-5.2,0.7,20.6,18.9,/,13.2,
COc1cccc(OCC(Cn2c(C)nc3ccccc32)OC(C)=O)c1 (stereo unspecified),i,0.5,-4.8,-12.9,9.7,9.2,/,-8.3,
FC(F)(F)c1cnc2c(-c3ccccc3)n[nH]c2c1,i,-8.7,0.3,-0.3,5.8,-34.4,/,/,
CCN(c1ccccc1)S(=O)(=O)c1ccc(Cl)c(C(=O)NCC2CCCO2)c1 (stereo unspecified),i,-2.3,-2.4,0.9,-2.8,5.5,/,-6.3,
Cc1ccc(N2C(=O)Nc3ccccc3S2(=O)=O)cc1Cl,i,5.7,2.2,-0.6,2.0,-7.5,-9.1,16.4,
O=C1c2cccc(O)c2C(=O)c2c(O)cccc21,i,50.5,/,/,130.1,/,/,4.9,eIF4H inh retest=-8.8;PABP polyA inh retest=1.3
O=C(CSc1ccc([N+](=O)[O-])cn1)Nc1ccc2c(c1)OCO2,i,15.3,1.5,6.2,6.5,-2.6,-19.3,2.8,
COCC(=O)N(Cc1cc2ccc(C)cc2[nH]c1=O)c1ccc(OC)cc1,i,-1.9,5.4,1.1,-2.8,-21.6,-2.3,-12.5,
COc1ccc(NC2CCCN(C(=O)CCCn3cncn3)C2)cc1 (stereo unspecified),/,-2.0,1.1,4.8,-2.0,7.0,-8.7,-14.0,
CCCc1cc(=O)[nH]c(SCC(=O)N(C)C2CCS(=O)(=O)C2)n1 (stereo unspecified),i,-5.4,1.8,5.1,-8.6,/,-15.5,-8.0,
COc1cc2c(cc1NC(=S)NC(=O)/C=C/c1ccc(OC)c(OC)c1)oc1ccccc12,/,-6.5,5.7,3.0,-2.0,-7.3,/,/,

# The final 2 compounds of the section before open the next one.
SMILES,Rce1 inhib,PABP polyA inh,MT1-MMP act inh,MT1-MMP act inh RFP,eIF4H inh,Env fusion inh,Yeast UUG start,CSC inhib,others
CCCc1cc(=O)[nH]c(SCC(=O)N(C)C2CCS(=O)(=O)C2)n1 (stereo unspecified),i,-5.4,1.8,5.1,-8.6,/,-15.5,-8.0,
COc1cc2c(cc1NC(=S)NC(=O)/C=C/c1ccc(OC)c(OC)c1)oc1ccccc12,/,-6.5,5.7,3.0,-2.0,-7.3,/,/,
CNc1nnc(-c2ccncc2)s1,?,-2.1,-1.4,-6.3,-9.0,-3.9,-25.0,-15.6,
O=C(CCc1nnc2n(Cc3ccc(F)cc3)c(=O)c3ccccc3n12)NCCCN1CCOCC1,i,-14.1,-1.5,1.9,1.1,-5.8,-22.6,-2.2,
CCCNC(=O)c1c(N)n(-c2cc(OC)cc(OC)c2)c2nc3ccccc3nc12,i,5.8,-7.2,-3.9,-6.3,-144.6,-10.0,17.0,
OC1CCN(c2cc(-c3ccccc3)nc3cc(-c4ccc(F)cc4)nn23)CC1,i,0.5,-11.2,-8.7,-2.8,21.3,/,88.3*,
Cc1ccc(C)c(NCCC#N)c1,i,-11.7,1.4,2.0,-0.6,/,-18.9,-15.3,
COc1ccc(C(=O)Nc2ccc(N3CCN(C)CC3)cc2)cc1,i,-13.1,-0.4,5.8,5.4,-15.4,-7.7,-8.2,
CC1=CC(=O)C(Sc2ccc(C)cc2)=CC1=O,/,/,-21.4,-0.8,/,2.0,-21.3,/,
O=S(=O)(c1ccc(Cl)c(Cl)c1)c1snnc1-c1ccccc1,i,-1.5,16.9,2.8,0.1,/,-17.4,/,
CC(C)N(C(=O)COC(=O)c1ccc(Cl)c(S(N)(=O)=O)c1)C(C)C,i,-6.7,-1.0,3.6,-0.2,-12.6,/,-2.2,
